Compound activity from PubChem.
Vaccinia Venus: inhibitors of vaccinia virus (Venus reporter); AID 720580; Potency, µM (top dose mostly 36.5 µM), for inactives: at the highest dose activity change, negative = inhibition, most hits filed as inhibitors; Vaccinia virus Venus reporter expression, fluorescence; 330,000 compounds, 0.46% hits; active means well fitted inhibition curve with a large enough effect; inconclusive means small, poorly fitted or top-dose-only effect; inactive means no such curve, though single readings can be large or run the other way; tested in A549 cells; note: nearly all actives have a fitted effect of over 30% in size; inactives centre near -10
VACV mCherry inh: inhibitors of vaccinia virus infection (mCherry reporter signal). Vaccinia virus mCherry reporter infection, fluorescence; about a quarter of the inactives have no number. Potency, µM (doses to about 36.5 µM), inactives show top-dose activity change, negative = inhibition, actives largely listed as inhibitors. 310,000 compounds, 0.63% hits; active = well fitted inhibition curve with a large enough effect; inconclusive = small, poorly fitted or top-dose-only effect; inactive = no such curve, though single readings can be large or run the other way; tested in A549 cells; note: nearly all actives have a fitted effect of over 35% in size; inactives centre near -10
Numbers without * were called inactive; i = inactive; ? = inconclusive; . = no result given; & = joins results of further samples; [ ] = remark or other dose. % is set by controls: 0 for no effect and ±100 for the full control effect; potency is the fitted concentration of half-maximal effect.

SMILES	Vaccinia Venus	VACV mCherry inh
O=C(CSc1nc2sc3c(c2c(=O)[nH]1)CCC3)NCCO	-2%	-11%
CCc1nc2ccc(C(=O)NCCOc3ccc(OC)cc3)cn2c1N(C)Cc1ccc(N(C)C)cc1	-10%	-17%
Cc1c(/C=N\NC(=O)c2c[nH]c3ccccc23)cnn1C	-17%	-27%
NC(=O)Cn1c(=O)n(CCCCCC(=O)NCc2ccc3c(c2)OCO3)c(=O)c2sccc21	-9%	-9%
COc1ccc2sc(-c3ccccc3OC)c(-c3ccc(OC)c(F)c3)c2c1	-9%	i
Cc1ccc(Sc2nc([N+](=O)[O-])nn2C)cc1	-15%	0%
Cc1nn(C)cc1CNc1nc(C)c(-c2ccn(CC3COc4ccccc4O3)n2)s1 (centres undefined)	-10%	-9%
CC(=O)c1ccc(N2CCN(c3ncnc4c3nc3n4CCCC3)CC2)cc1	?	-27%
Cc1cccc(NC(=O)CNC(=O)CN2C(=O)NC3(CCCc4ccccc43)C2=O)c1C (centres undefined)	-8%	-18%
COc1ccc(OC)c(NC(=O)COC(=O)c2nc(Cl)ccc2Cl)c1	1%	-14%
CCCCCOC(=O)Nc1ccc(S(=O)(=O)Nc2cccc([N+](=O)[O-])c2)cc1	-18%	-25%
O=C(CCCSc1nnc(SCCCC(=O)c2ccc(F)cc2)s1)c1ccc(F)cc1	11µM*	?
Cc1nc2c3ccccc3nc(NNC(=O)CCC(=O)O)n2n1	9%	0%
O=C(CSc1nnc(-c2ccccc2F)o1)N1CCc2ccccc21	-3%	-1%
Cc1cc(NC(=O)CCN2CCN(CCO)CC2)ccc1Br	1%	-15%
COc1ccc(C(=O)N2CCC(CCC(=O)Nc3cccc(C)c3)CC2)cc1	-8%	i
O=C(CCNS(=O)(=O)c1ccccc1)OCc1nc2ccsc2c(=O)[nH]1	-5%	-13%
CCCc1ccc(OCc2nc(-c3ccc(NC(=O)c4ccco4)cc3)no2)cc1	?	?
O=C(COC(=O)C1C2CC3OC(=O)C1C3C2)Nc1ccc(Cl)cc1 (centres undefined)	15%	-2%
O=[N+]([O-])c1ccc(C=Nc2ccccc2)cc1	6%	-11%
CC1CCCCC12NC(=O)N(CC(=O)Nc1ccc(N3CCCCC3)cc1)C2=O (centres undefined)	-13%	-25%
CCCCNC(=O)C1(C)CCN1C(=O)CSc1ccccc1 (centres undefined)	-4%	2%
CC1CCc2c(C(=O)Nc3nccs3)csc2C1 (centres undefined)	-22%	2%
Cn1cc([N+](=O)[O-])c(C(=O)NCc2cc3cc(Cl)ccc3[nH]2)n1	-7%	-5%

Record cards, as listed above. Order of screens: Vaccinia Venus, VACV mCherry inh
Cc1cc(NC(=O)CCN2CCN(CCO)CC2)ccc1Br reads 1%, -15%
CC1CCc2c(C(=O)Nc3nccs3)csc2C1 (centres undefined) reads -22%, 2%
O=C(CSc1nnc(-c2ccccc2F)o1)N1CCc2ccccc21 reads -3%, -1%
Cn1cc([N+](=O)[O-])c(C(=O)NCc2cc3cc(Cl)ccc3[nH]2)n1 reads -7%, -5%

Some of the entries above, set out differently:
Below each SMILES: Vaccinia Venus	VACV mCherry inh
> CCc1nc2ccc(C(=O)NCCOc3ccc(OC)cc3)cn2c1N(C)Cc1ccc(N(C)C)cc1
  -10%	-17%
> Cc1cccc(NC(=O)CNC(=O)CN2C(=O)NC3(CCCc4ccccc43)C2=O)c1C (centres undefined)
  -8%	-18%
> CC1CCCCC12NC(=O)N(CC(=O)Nc1ccc(N3CCCCC3)cc1)C2=O (centres undefined)
  -13%	-25%
> CC(=O)c1ccc(N2CCN(c3ncnc4c3nc3n4CCCC3)CC2)cc1
  ?	-27%
> O=C(CCNS(=O)(=O)c1ccccc1)OCc1nc2ccsc2c(=O)[nH]1
  -5%	-13%
> O=C(CSc1nnc(-c2ccccc2F)o1)N1CCc2ccccc21
  -3%	-1%

(next part)
SMILES	Vaccinia Venus	VACV mCherry inh
CCCCNc1nc2ccccc2nc1NS(=O)(=O)c1cccs1	-6%	-25%[1.46 µM]
Cc1ccc(N/N=C/c2ccc(N3CCOCC3)cc2)cc1C	-16%	.
COc1ccc(CC(N)c2csc(NC(=O)Nc3ccccc3-c3ccccc3)n2)cc1 (centres undefined)	?	0%
O=C(COc1c(Cl)cc(Cl)cc1Cl)c1ccc(Cl)cc1	-5%	-16%
N#C/C(=C/c1cccnc1)c1ccccc1	-7%	-24%
CCN(CCCNC(=O)c1cc2c(=O)[nH]c3ccc(C)cc3c2s1)Cc1ccccc1	?	?
Cc1cc(C(=O)Nc2cccc(C(F)(F)F)c2)c2c(C)nn(-c3cccc(F)c3)c2n1	?	-28%
Cc1c(OCC(=O)OC(C)C)ccc2c3c(c(=O)oc12)CCC3	5%	1%
CCOC(=O)c1ccccc1NC(=O)c1ccc(N(C)S(C)(=O)=O)cc1	0%	-1%
CC(=O)c1cccc(N(C(=O)CNC(=O)c2ccco2)C(C(=O)NCc2ccco2)c2ccccc2)c1 (centres undefined)	-14%	i
COc1ccc(Cn2c(SCc3ccc(C(=O)NCc4cccs4)cc3)nc3ccncc32)cc1	-20%	-29%
COC(=O)c1cc(NC(=O)Cc2ccc(OC)c(OC)c2)cc(C(=O)OC)c1	-1%	2%
CC(C)(CO)NC(=O)c1cnn(-c2nccc(-c3ccc4c(c3)OCO4)n2)c1C1CC1	-19%	-23%
C/C(CC(=O)Nc1ccc(C)cc1C)=N\NC(=O)C(C)C	3%	i
CCOc1ccc(C2C(=O)N(C3CCCCCC3)CC(=O)N2Cc2ccc(F)cc2)cc1OC (centres undefined)	-1%	-7%
COc1ccccc1CNC(=O)COC(=O)COc1ccccc1Cc1ccccc1	-8%	-11%
CCn1nc(-c2ccccc2)c(-c2ccccc2)c(C(=O)Nc2ccc(S(N)(=O)=O)cc2)c1=O	-19%	-15%
COc1ccc(-n2c(Cc3ccccc3)nnc2SCC(=O)N2CCCc3ccccc32)cc1	-15%	-6%
CSc1nnc(C)c(=O)n1COC(=O)COc1ccccc1	-5%	-4%
CCN(CC)C(=O)N1CCN(C(=O)c2ccc(C)cn2)CC1	-12%	-7%
O=C(N/N=C/c1cc(Br)ccc1O)Nc1ccccc1	?	-19%
Cc1ccc(S(=O)(=O)NNC(=O)C(O)(c2ccccc2)c2ccccc2)cc1	-7%	i
CCOc1ccc(Br)cc1C1C(C(=O)OC)=C(N)Oc2cc(N(C)C)ccc21 (centres undefined)	-29%	.
CC(=O)c1cccc(NC(=O)C(C)OC(=O)/C=C/c2cccs2)c1 (centres undefined)	-26%	?
COc1cc(OC)cc(C(=O)Nc2nnc3n2CCS3)c1	5%	6%
COc1cccc(-n2c(=O)c3sccc3n(CC(=O)NC3CCCCC3)c2=O)c1	-5%	-11%
CSc1ccccc1OCc1cc(C(=O)N(C)Cc2c(C)n[nH]c2C)no1	-12%	i
CC(=O)c1ccc(NC(=O)c2cc3c(=O)oc4ccc(C)cc4c3s2)cc1	2%	-2%
Cc1ccc(C(=O)CCC(=O)Nc2ccc(Cl)c(S(=O)(=O)Nc3cccc(Cl)c3)c2)cc1	-20%	-7%
Cc1sc2ncn(CC(=O)NCCN3CCOCC3)c(=O)c2c1S(=O)(=O)N1CCC(C)CC1	-8%	-20%
O=C(NCc1ccc(F)cc1)C(=O)NCC1OCCN1S(=O)(=O)c1ccc2c(c1)OCCO2 (centres undefined)	-5%	i
CC(=O)N1c2ccc(S(=O)(=O)NCCC(=O)Nc3ccc(Br)c(C)c3)cc2CC1C (centres undefined)	?	-23%
O=[N+]([O-])c1ccccc1/C=N/n1c(COc2ccccc2)n[nH]c1=S	-6%	-11%
CCOCC(=O)Nc1ccc(-c2cn3cccnc3n2)cc1	-13%	-12%
Cc1ccc(-c2nc3sc(CCNC(=O)c4ccc(F)c(F)c4)c(C)n3n2)cc1	-22%	-1%
O=C(CCn1c(=O)sc2ccccc21)NCc1ccco1	-4%	2%
Cc1c(C(=O)NCCc2ccccc2)cccc1-n1cnc2cccnc21	-8%	-8%
OB(O)c1cc2ccccc2o1	6%	-7%
Cc1ccc(S(=O)(=O)N(C)C)cc1NC(=O)C1CCCCC1	0%	-10%
CCOC(=O)C1CCCN(CC(=O)N2CCCc3c2c(=O)oc2ccc(OCc4ccccc4)cc32)C1 (centres undefined)	10%	-12%
COc1ccccc1C1NC(=O)NC(C)=C1C(=O)OC1CCCCC1 (centres undefined)	-17%	-4%
CS(=O)(=O)N(CCc1ccccc1)CC(N)=O	-1%	-12%
COc1ccc(CN2C(=O)CN=C2Nc2cc(C)ccc2C)cc1	-12%	-21%
CCS(=O)(=O)N1CCN(c2ccc([N+](=O)[O-])c(NCc3cccnc3)c2)CC1	-16%	i
CCCCOC(=O)Cn1c(=O)c2c(nc3n2CCCCN3c2ccc(C)cc2)n(C)c1=O	-13%	.
CCOC(=O)[C@H]1[C@H]2COc3cc(OC)ccc3[C@@H]2N2C(=O)CN(Cc3ccc(OC)cc3)C(=O)[C@@]12C	-22%	-27%
COc1ccc(N(CC(=O)NCc2cccs2)S(=O)(=O)c2cccnc2)cc1	-4%	-11%
COc1ccc(S(=O)(=O)Nc2ccc(C(N)=O)cc2)cc1C(=O)N1CCCCCC1	-12%	-2%
CCc1nc2ccccc2n1CCc1ccccc1	-15%	i
COc1cc(NC(=O)Cc2ccc([N+](=O)[O-])cc2)c(C(=O)O)cc1OC	-8%	-10%
CCOC(=O)c1c(CN2CCCCC2C)oc2ccc(OC)cc12 (centres undefined)	-4%	i
CCOc1ccccc1NC(=O)COC(=O)c1ccc(S(=O)(=O)N2CCCC2)cc1	-4%	-8%
Cc1cccc(NCC(=O)N/N=C\c2ccccn2)c1	-9%	-10%
Cc1cc(C)cc(-n2c(=O)c3ccccc3n(CC(=O)NCC3CCCO3)c2=O)c1 (centres undefined)	-1%	-1%
COc1cccc(NCCC(=O)c2cccc([N+](=O)[O-])c2)c1	-20%	-12%
Cc1ncc(CNC(=O)N(CCCl)N=O)c(N)n1	-15%&-7%	-5%
Cc1nnc(NC(=O)CCS(=O)(=O)c2ccccc2)s1	-21%	?
Cc1ccc(N(CCC#N)C(=O)CN2C(=O)NC(Cc3ccccc3)C2=O)cc1 (centres undefined)	-4%	-3%
CC(C)CNC(=O)c1ccccc1SCC(=O)NC12CC3CC(CC(C3)C1)C2	-14%	0%
CC#CCN1c2ccccc2[C@]23C[C@@H](C(=O)OC)N(C(=O)c4ccc(Br)cc4)C2=NC(C(=O)OC)=C(C(=O)OC)[C@H]13	?	?

Following part.
SMILES	Vaccinia Venus	VACV mCherry inh
CCCCS(=O)(=O)N1CCC(C(=O)NCC2CCCO2)CC1 (centres undefined)	-5%	-15%
N#C/C(=C\c1ccc(N2CCOCC2)o1)C(=O)NC1CCCCC1	0%	?
C=CCn1c(=O)c2c3c(sc2n2c(Nc4ccc(OC)cc4)nnc12)CCCC3	-16%	-19%
COc1ccc(CNC(=O)CCS(=O)(=O)c2cc3c4c(c2)CCN4C(=O)CC3)cc1OC	-3%	-8%
O=C(Nc1nnc(S(=O)(=O)N2CCCCCC2)s1)c1ccccc1Cl	-6%&-8%	-16%&-4%
CCCCc1ncc(CN2CCC(n3nccc3NC(=O)c3ccccc3OC)CC2)[nH]1	-13%[7.34 µM]	i[7.34 µM]
Cc1ccc(C)c(NC(=O)c2ccc(S(=O)(=O)C(F)F)cc2)c1	-4%	-16%
Cc1ccc(NC(=O)Nc2nnc(N(C)C3CCCCC3)s2)c(Cl)c1	-22%	-13%
COC(=O)c1ccccc1NC(=O)Cn1nnc(-c2ccc3c(c2)OCO3)n1	-9%	-4%
Cc1ccc(-c2nnn(CC(=O)NCCc3ccc4c(c3)OCO4)n2)cc1	-8%	i
CCCCn1c(N)c(N(CC(C)C)C(=O)CC(NC(=O)c2ccccc2Cl)c2ccccc2)c(=O)[nH]c1=O (centres undefined)	-21%	-19%
COc1ccc(NC(=O)C(C)NS(=O)(=O)c2ccccc2)cc1Cl (centres undefined)	-3%	.
Cc1c(NC(=O)COC(=O)/C=C/c2cccc(F)c2)c(=O)n(-c2ccccc2)n1C	-7%	i
C[C@H](CO)N1C[C@H](C)[C@@H](CN(C)S(=O)(=O)c2ccc(F)cc2)Oc2ccc(NC(=O)CCC(F)(F)F)cc2C1=O	-4%	i
Cc1nnc(SCC(=O)NCc2ccc3c(c2)OCO3)n1C	-12%	i
CN(C)c1ccc(CNC(=O)Cn2ccc3cc(S(=O)(=O)N4CCCCCC4)ccc32)cc1	-22%	-3%
O=C(/C=C/c1ccccc1)OCC(=O)N1CCN(c2ccccc2)CC1	-9%	-7%
N#CCCN(C(=O)COC(=O)Cc1ccc(Br)cc1)c1ccccc1	-13%	i
CC1CCc2sc3ncnc(N4CCOCC4)c3c2C1 (centres undefined)	-29%	.
C#CCN(C#N)c1nc(NCC)nc(NC(C)C)n1	-23%	-22%
COc1ccc(OC)c(C2C(C(=O)Nc3ccc(C)cc3)=C(C)Nc3nnnn32)c1 (centres undefined)	-3%	-5%
CC(C)(C)NC(=O)COC(=O)c1ccc(S(=O)(=O)N2CCCC2)cc1	-9%	-3%
Cc1nn(-c2nc3ccccc3[nH]2)c(=O)c2ccccc12	-20%	i
CC(C)[C@H](NS(=O)(=O)c1ccc2c(c1)OCCO2)C(=O)OCC(=O)Nc1ccccc1Cl	-11%	i
C[C@@H](C(=O)Nc1cc(C(F)(F)F)ccc1N1CCOCC1)N1C(=O)C2CC=CCC2C1=O (some centres undefined)	-8%	-2%
CN1CCN(S(=O)(=O)c2cccc(C(=O)N(C)CC(=O)Nc3ccc(F)c(F)c3F)c2)CC1	-8%	i
